# Screening results from PubChem.
# YopH PTP inh: YopH tyrosine phosphatase inhibitors, primary screen, biochemical, fluorescence Ex485/Em525; YopH tyrosine phosphatase [Yersinia enterocolitica]; inhibition, %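 (about 10 µM by stock and volumes)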; 140,000 compounds, 0.16% hits;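 active = inhibition of 50% or more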;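 also: controls were vehicle for no effect and minimum signal wells for full effect; inactives centre near -20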
# Mtb growth: M. tuberculosis H37Rv growth inhibitors, H37Rv strain (AID 1626) | inhibition, % at 10 µM; hits with a dose series show IC50 in µM | M. tuberculosis H37Rv growth inhibition; higher % means a stronger effect | 220,000 compounds, 0.95% hits;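 active = confirmed in a dose series; inconclusive = inhibition above 80% but not taken into the dose series; inactive = below 80% or under 30% at every dose of the series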;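 also: bacteria incubated seven days before Alamar blue readout; 0% = bacteria only wells and 100% = bacteria with antibiotic wells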
# Mtb bLac sens: beta-lactam sensitization of Mtb H37Rv, H37Rv | M. tuberculosis H37Rv growth with meropenem, percent inhibition; hits of this screen are not shown here | inhibition, % at 25 µM | 330,000 compounds, 0.27% hits | AID 434955, 2010;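 active = about 74% or more and at least 40 points above the plate without the antibiotic, then above 30% in a dose series; inconclusive = first-round hits that could not be retested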;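 also: growth measured after seven days incubation then overnight dye step; 0% = bacteria only wells and 100% = bacteria with antibiotic; twin plates without the antibiotic show which effects depend on it; some results filed as inactive read as strong as hits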
# Arbovirus anti: antivirals against arbovirus infection, primary screen, cell-based, full library, 10K replicate subset | arbovirus infection cell-based antiviral screen | inhibition, % at 10 µM | 200,000 compounds, 0.37% hits | AID 1251, 2008;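 active = inhibition from about 30%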;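 also: bluetongue infection of BSR cells; cell survival read as ATP light after 72 h; 0% = infected wells without compound and 100% = uninfected wells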
# RecA splice inh: Mtb RecA intein splicing inhibitors, primary screen, biochemical, fluorescence, HTS | AID 2221, 2009 | inhibition, %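 (about 9 µM by stock and volumes)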 | Protein RecA (Mycobacterium tuberculosis (strain ATCC 25618 / H37Rv)), P9WHJ3 | cell-free RecA intein splicing | 290,000 compounds, 0.75% hits; in the data active = inhibition above about 30%; inconclusive = no clear call, values can overlap the other calls;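 also: 0% = vehicle wells and 100% = reference inhibitor control wells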
# Target sequence (P9WHJ3 whole entry, looked up, canonical isoform): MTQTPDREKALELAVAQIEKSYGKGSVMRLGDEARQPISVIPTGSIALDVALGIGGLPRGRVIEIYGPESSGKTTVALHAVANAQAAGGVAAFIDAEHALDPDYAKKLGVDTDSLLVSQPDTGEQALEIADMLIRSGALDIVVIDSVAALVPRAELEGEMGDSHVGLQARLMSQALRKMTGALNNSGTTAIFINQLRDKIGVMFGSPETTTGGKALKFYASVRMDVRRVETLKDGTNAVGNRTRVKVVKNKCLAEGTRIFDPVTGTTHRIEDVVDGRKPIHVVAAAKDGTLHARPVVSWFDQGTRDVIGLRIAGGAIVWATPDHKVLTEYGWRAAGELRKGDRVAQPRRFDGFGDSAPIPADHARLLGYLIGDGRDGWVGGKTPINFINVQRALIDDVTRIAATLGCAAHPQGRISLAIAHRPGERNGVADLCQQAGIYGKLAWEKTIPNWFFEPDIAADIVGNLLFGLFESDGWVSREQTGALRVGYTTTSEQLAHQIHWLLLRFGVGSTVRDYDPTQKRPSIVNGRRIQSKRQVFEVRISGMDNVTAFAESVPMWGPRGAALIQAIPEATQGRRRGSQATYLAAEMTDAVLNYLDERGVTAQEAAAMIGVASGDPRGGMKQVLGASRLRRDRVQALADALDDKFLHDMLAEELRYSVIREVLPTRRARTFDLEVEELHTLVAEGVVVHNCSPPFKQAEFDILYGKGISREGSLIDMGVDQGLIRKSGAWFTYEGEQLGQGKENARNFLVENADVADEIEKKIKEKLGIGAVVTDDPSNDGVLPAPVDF
# Arbovirus anti repeat: second read-out of Arbovirus anti, no call of its own (marks repeat the call); inhibition, %; measured here: 10K subset replicate screen; many hits read low in the repeat;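 first of two repeat runs on a subset; 0% = infected and 100% = uninfected wells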
# * hit, by the source's call; ? = inconclusive; / = not tested or not shown. Not all compounds are listed. The share of hits here may be higher or lower than overall.
SMILES,YopH PTP inh,Mtb growth,Mtb bLac sens,Arbovirus anti,RecA splice inh,others
O=C(c1cc(F)c(F)cc1Cl)N1CCN(c2ncccn2)CC1,/,/,-4,/,1.3,
Cc1ccc2c(c1)C1(OCCCO1)C(=O)N2,/,/,-2,/,0.1,
CCOc1ccc(NC(=O)c2cccc(-n3cnnn3)c2)cc1,-14,-4%,4,1,-0.8,
CCOC(=O)C1CCN(CC(=O)N2C(C)CCCC2C)CC1 (stereo not given),6,-4%,8,3,-0.2,
CCOc1ncccc1C(=O)N1CCN(c2cccc(C)c2C)CC1,/,8%,/,-15,2.1,
CCOC(=O)N1CCC(N2C(=O)c3ccccc3C2Nc2ccc(S(=O)(=O)N3CCCCC3)cc2)CC1 (stereo not given),/,6%,-6,-3,3.8,
COc1cc(/C=N/NC(=O)c2ccc3nc[nH]c3c2)cc(OC)c1OC,/,-17%,-9,/,/,
COc1ccc2c(c1O)C13CCN(C)C(C2)C1CCC(=O)C3 (stereo not given),/,/,-5,/,-1.8,
O=C(NCC1CCCO1)C1CCN(C(=O)c2ccc(Br)cc2)CC1 (stereo not given),-23,1%,-4,4,-0.9,
CCc1ccc(NC(=O)C2CCCN(S(=O)(=O)c3ccc4c(c3)CCCN4C(C)=O)C2)cc1 (stereo not given),/,/,1,/,-2.9,
COC(=O)C1CCN(S(=O)(=O)c2cn(C)c(=O)n(C)c2=O)CC1,-44,-2%,-8,5,-0.7,
Cc1ccc(NC(=O)CSc2nccn2Cc2ccco2)c(C)c1,/,/,-2,/,-1.8,
O=C(CSc1nnc(-c2cccnc2)n1C1CCCCC1)NC1CCCCC1,-5,-1%,/,-1,1.6,
CC1=NN(C(=O)c2ccccc2F)C(O)(c2ccc(Cl)cc2)C1 (stereo not given),/,/,50,/,-2.0,
CCCCC(=O)NC(Nc1cc(C)ccn1)(C(=O)OCC)C(F)(F)F (stereo not given),-22,-1%,0,7,-2.0,
COc1cc(C(=O)N2CCN(CCCc3ccccc3)CC2)cc(OC)c1OC,/,/,-6,/,-1.9,
O=C(C1=C[C@@H](c2coc3ccccc3c2=O)C[C@@H](OCCCCO)O1)N1CCN(Cc2ccc3c(c2)OCO3)CC1,/,6%,19,-7,0.2,
COC(=O)c1cc(NC(=O)c2ccc(OC)cc2)c(=O)oc1C,/,4%,-3,1,0.4,
COc1cccc(C(=O)Nc2ccc(NC(=O)c3ccco3)c(Cl)c2)c1,/,5%,-2,-9,-1.9,
CCn1c(O)c(N=Nc2ccc(S(=O)(=O)N3CCOCC3)cc2)c(=O)n(CC)c1=S,/,2%,4,/,24,
Cc1[nH]n(-c2ccccc2)c(=O)c1C=NCc1ccco1,/,7%,-4,-2,3.6,
COCCCNC(=O)COc1ccc(S(=O)(=O)Nc2ccccc2)cc1,-9,3%,-10,4,0.5,
CCOc1ccc(N2C(=O)S/C(=C\c3ccc(O)c(OCC)c3)C2=O)cc1,/,0%,-8,/,3.3,
COC(=O)C(C)NC(=O)C12CC3CC(CC(C3)C1)C2 (stereo not given),0,-4%,39,6,1.2,

# Quoted from the listing (7 entries):
SMILES,YopH PTP inh,Mtb growth,Mtb bLac sens,Arbovirus anti,RecA splice inh,others
O=C(CSc1nnc(-c2cccnc2)n1C1CCCCC1)NC1CCCCC1,-5,-1%,/,-1,1.6,
CC1=NN(C(=O)c2ccccc2F)C(O)(c2ccc(Cl)cc2)C1 (stereo not given),/,/,50,/,-2.0,
CCCCC(=O)NC(Nc1cc(C)ccn1)(C(=O)OCC)C(F)(F)F (stereo not given),-22,-1%,0,7,-2.0,
COc1cc(C(=O)N2CCN(CCCc3ccccc3)CC2)cc(OC)c1OC,/,/,-6,/,-1.9,
O=C(C1=C[C@@H](c2coc3ccccc3c2=O)C[C@@H](OCCCCO)O1)N1CCN(Cc2ccc3c(c2)OCO3)CC1,/,6%,19,-7,0.2,
COC(=O)c1cc(NC(=O)c2ccc(OC)cc2)c(=O)oc1C,/,4%,-3,1,0.4,
COc1cccc(C(=O)Nc2ccc(NC(=O)c3ccco3)c(Cl)c2)c1,/,5%,-2,-9,-1.9,

# (continued)
SMILES,YopH PTP inh,Mtb growth,Mtb bLac sens,Arbovirus anti,RecA splice inh,others
Cc1ccccc1NC(=O)c1ccc(CN2CCC(Cc3ccccc3)CC2)cc1,4,7%,78,-4,2.1,
COc1ccc(NC(=O)CN(C)C(=O)CCCc2c[nH]c3ccccc23)cc1,/,/,-10,/,1.4,
O=C(c1cc(Cl)cc(Cl)c1)N1CCOCC1,-4,-3%,2,-3,-3.7,
NC(=S)N/N=C/c1ccccc1OC(=O)/C=C/c1ccccc1,/,/,95,/,-3.0,
COCCN(C(=O)COC(=O)c1ccc(Cl)s1)c1c(N)n(Cc2ccccc2)c(=O)[nH]c1=O,/,/,-5,/,13,
Cc1cc(NC(=O)C2CC(=O)N(c3ccccc3)C2)no1 (stereo not given),-5,0%,-11,1,-8.4,
O=C(Nc1ccccc1SCC1CSc2nc3ccccc3c(=O)n21)c1ccccc1 (stereo not given),-38,-1%,1,4,-8.2,
COc1ccc(OC)c(C(C)NC(=O)c2ccco2)c1 (stereo not given),-43,-6%,1,-11,-3.4,Arbovirus anti repeat=-13
COc1ccccc1N=C1SC(C(=O)Nc2cccc(Cl)c2Cl)C(N)=C1C(N)=O (stereo not given),/,-9%,32,/,1.0,
CNC(=O)c1ccccc1Sc1cccc2cccc(C(=O)O)c12,/,/,2,/,-2.6,
CC(C)NS(=O)(=O)c1ccc(CCC(=O)NCc2ccco2)cc1,-24,-3%,-3,4,0.4,Arbovirus anti repeat=-2
CCNC(=O)/C(C#N)=C/c1c(N2CCN(c3cccc(Cl)c3)CC2)nc2c(C)cccn2c1=O,/,/,6,/,-3.3,
O=C1C2C3CCC(O3)C2C(=O)N1CCO (stereo not given),/,-1%,-11,/,-1.3,
O=c1[nH]c2ccc(Cl)cc2c(-c2ccccc2)c1SC(=S)N1CCOCC1,-14,5%,2,-49,4.1,
Cc1nnc(SC(C)C(=O)NC2CCCCC2C)s1 (stereo not given),/,/,-12,/,4.1,
COc1cccc(-c2cc(C(=O)NCc3ccco3)c3ccccc3n2)c1,/,/,3,/,1.3,
COc1ccc(CCn2c(NCCCN3CCOCC3)nc3c2c(=O)[nH]c(=O)n3C)cc1,30,11%,-2,-3,-0.4,
Cc1cccn2c(=O)c(C(=O)NC3CCCCC3)c(O)nc12,/,/,5,/,4.0,
COCCN(C(=O)c1ccccc1OC1CCN(S(C)(=O)=O)CC1)C(C)C,/,-1%,-4,3,-1.2,
Cn1c(=O)c2cc(S(=O)(=O)NCCC(=O)NCCc3ccc(Cl)cc3)ccc2n(C)c1=O,-35,-8%,0,-17,0.2,
CCn1cnc2cc(NCc3ccc(Br)cc3)ccc21,/,/,83,/,0.5,
O=C(COC(=O)c1cnc(Cl)c(Cl)c1)NCc1ccc2c(c1)OCO2,-46,-8%,3,-1,0.5,
Cc1cc(C)c2nc(N3CCC(C(=O)NCCN4CCOCC4)CC3)sc2c1,/,/,1,/,-2.0,
COc1nc(-c2ccccc2)ccc1-c1noc(-c2cccs2)n1,-26,1%,?,/,-0.5,
COC(=O)[C@@H](NC(=O)NCc1ccccc1Cl)C(C)C,20,-12%,27,-4,1.3,
CCNC(=S)N/N=C/c1ccc(OCCOc2ccccc2C)cc1,-16,-4%,-6,0,1.0,
CC1CC(O)(Cc2ccccc2)C(C)CN1C (stereo not given),-15,-2%,0,4,-0.4,
Cc1cc(N2C(=O)c3ccc(C(=O)Nc4ccc(CC(=O)O)cc4)cc3C2=O)no1,/,/,-2,/,-3.5,
Cc1cnc(C(=O)OCC(=O)NCc2ccc3c(c2)OCO3)cn1,/,-3%,4,-2,-0.9,
Cc1cc(=O)oc2cc(NC(=O)C(C)Oc3cccc(Cl)c3)ccc12 (stereo not given),/,/,-2,/,-3.4,
Cc1cc(C(=O)Nc2cccc3ccccc23)n(-c2ccccc2)n1,/,-9%,85,-5,4.4,
O=[N+]([O-])c1cccc(-c2nc(N3CCOCC3)c3ccccc3n2)c1,/,6%,/,-2,/,
Cc1ccc2c(c1)CC1(CN2C)C(=O)NC(=O)N(CCC2=CCCCC2)C1=O (stereo not given),-9,0%,7,0,0.2,
O=C(O)CN=C(NS(=O)(=O)c1ccccc1)c1ccccc1,-51,-1%,-10,1,0.3,
COc1ccc(C)cc1S(=O)(=O)N1CCN(Cc2ccccc2)CC1,-28,-7%,5,-1,/,
C/C(=N\S(=O)(=O)c1ccc(C)cc1)N1CCN(S(=O)(=O)c2ccccc2)C1C(C)C (stereo not given),-15,8%,-14,4,2.3,
O=C(COC(=O)c1ccccc1)Nc1cc(Cl)ccc1Oc1ccccc1,0,6%,1,12,11,
Cc1ccc(CCNC(=O)CN(c2cc(C)cc(C)c2)S(=O)(=O)c2c(C)noc2C)cc1,/,/,5,/,-2.1,
CCN1CCN(Cc2c(O)ccc3c2O/C(=C\c2ccc(C)cc2)C3=O)CC1,/,4%,8,5,-14,
O=[N+]([O-])c1ccc(-c2cn3nc(-c4ccccc4)c(-c4ccccc4)nc3n2)cc1,/,6%,-7,/,-3.1,
CCN(CCO)C(=S)Nc1cc(C(=O)OC)ccc1C(=O)OC,-22,-7%,-11,-1,-9.2,
Cc1cccn2c(=O)c3cc(C(=O)NC4CCCC4)c(=N)n(Cc4ccc(F)cc4)c3nc12,/,/,97,/,-262,
CC1CC(C)CN(CCCNC(=O)c2ccc(CS(=O)(=O)Cc3cccc(Cl)c3)o2)C1 (stereo not given),/,/,5,/,-6.4,
Cc1cccc(/C(N)=N/OC(=O)Cc2ccccc2)c1,/,4%,4,-9,0.8,
CC(=O)N1CCN(S(=O)(=O)c2ccc(S(=O)(=O)NC3CCCCC3)cc2)CC1,/,/,-2,/,0.6,
Cc1ccccc1NS(=O)(=O)c1cc(C(=O)NCc2ccco2)ccc1C,-34,-2%,-5,1,2.7,
Cc1cc(=O)[nH]c(SCC(=O)Nc2ccc(Br)cn2)n1,-4,-4%,-3,4,5.1,
CCOC(=O)CN1CC23C=CC(O2)C(C(=O)Nc2ccc(C(C)=O)cc2)C3C1=O (stereo not given),-33,-8%,-7,7,-0.1,Arbovirus anti repeat=7
Cn1c(=O)n(CC(N)=O)c(=O)c2c1nc(Br)n2Cc1ccccc1,/,/,2,/,1.8,
COc1cc(C(=O)N2CCc3ccccc32)ccc1OCc1c(C)noc1C,/,7%,-2,/,2.9,
O=C(CSc1nc2[nH]ncc2c(=O)[nH]1)Nc1ccc(Cl)cc1,/,/,-5,/,-2.9,
O=[N+]([O-])c1ccc(Oc2ccc(S(=O)(=O)N3CCOCC3)cc2)cc1,/,/,-6,/,-0.1,
COC(=O)C1CCN(C(=O)c2cc(=O)[nH]c3ccccc23)CC1,/,-8%,-2,5,-1.7,
CC(C)OCC(O)CN1CCN(C(c2ccccc2)c2ccccc2)CC1 (stereo not given),/,10%,-2,10,-0.1,
COc1ccc(NC(=O)C2CCN(C(=O)NC3CCCCC3)CC2)c(OC)c1,-35,-1%,-6,-1,0.3,
COc1ccc2c(c1)CC(=O)NC=C2,/,6%,-6,6,1.0,
COc1cc(NC(=O)CN(c2cc(C)cc(C)c2)S(=O)(=O)c2c(C)noc2C)cc(OC)c1,-19,3%,-1,3,/,Arbovirus anti repeat=-7
CCOc1ccc(C(=O)Nc2cc(Cl)ccc2-n2cncn2)cc1OC,/,/,2,/,-0.3,
S=C(NCc1ccco1)Nc1cccc(Cl)c1,-27,-3%,-17,7,1.2,
COC(=O)COc1ccc2cc(-c3ccc(OC)cc3)c(=O)oc2c1,/,/,99,/,-1.8,
# Next entries:
SMILES,YopH PTP inh,Mtb growth,Mtb bLac sens,Arbovirus anti,RecA splice inh,others
Nc1nonc1-n1nnc(C(=O)N/N=C/c2cccc(Cl)c2)c1CN1CCCCCC1,/,/,-4,/,0.5,
COCCCNCCCCOc1ccc(OCc2ccccc2)cc1,/,-4%,3,-42,0.7,
Cc1ccc(S(=O)(=O)N(Cc2cccc(Cl)c2)C(=O)N2CCN(C)CC2)cc1,/,/,-8,/,-0.5,
N#Cc1sc2nc(-c3cccs3)cc(-c3ccccc3)c2c1N,-39,-6%,-1,2,-45,
CSCCC(NS(=O)(=O)c1ccc2c(c1)OCCO2)C(=O)N(C)Cc1ccc(C)cc1 (stereo not given),/,/,0,/,1.0,
Cc1cc(C(F)(F)F)n2nc(C(=O)O)c(Cl)c2n1,7,-6%,-3,0,/,
CCC(C)NC(=O)CNS(=O)(=O)c1ccc(C)cc1 (stereo not given),-2,-17%,14,9,-2.4,
CC(=O)Nc1cccc(C(=O)/C=C/c2ccc[nH]2)c1,/,-14%,-5,/,-1.3,
